# Screening results deposited in PubChem BioAssay by Southern Research Specialized Biocontainment Screening Center.
# Mtb bLac sens – beta-lactam sensitization of Mtb H37Rv; M. tuberculosis H37Rv growth with meropenem, percent inhibition; hits of this screen are not shown here; inhibition, % at 25 µM; actives 0.27% (n = 330,000); AID 434955;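 active = about 74% or more and at least 40 points above the plate without the antibiotic, then above 30% in a dose series; inconclusive = first-round hits that could not be retested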;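 also: growth measured after seven days incubation then overnight dye step; 0% = bacteria only wells and 100% = bacteria with antibiotic; twin plates without the antibiotic show which effects depend on it; some results filed as inactive read as strong as hits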
# * = called active by the depositor; ? = inconclusive. The list is partial; count on the stated rates, not on these rows.
molecule,Mtb bLac sens
CC(C)(C)C1CCC(C(=O)Nc2ccc(N3CCOCC3)cc2N2CCOCC2)CC1 (stereo not given),5.0
O=C(N/N=C/c1cccnc1)c1cc(-c2ccc(Cl)cc2)nc2ccccc12,-5.6
COc1ccc(OC[C@@H](O)CNC(=O)c2cccc3c2C(=O)c2ccc(-c4ccc(F)cc4OCc4ccccc4)cc2S3(=O)=O)cc1,11.6
CN1CCC(N(C)C(=O)c2ccc(Cl)c(S(=O)(=O)Nc3cc(Cl)ccc3Cl)c2)CC1,-5.4
CN(CC(=O)Nc1ccc(Cl)c(C(F)(F)F)c1)C(=O)Cn1cc([N+](=O)[O-])ccc1=O,2.7
Brc1ccc(-c2ccccc2)cc1,-1.0
COC(=O)C1=C(c2ccc(F)cc2F)C[C@@H]2CC[C@H]1N2C(=O)NC1CCCCC1,-0.5
COc1ccc(/C=C/C(=O)NNC(=O)C(C)Oc2ccccc2F)cc1OC (stereo not given),-10.3
O=c1c2ccccc2ncn1CCCCOc1ccccc1F,-1.9
COc1cc(C#Cc2c(-c3cncn3C)n(C)c3ccc(-c4ccc(CN5CCOCC5)cc4)cc23)cc(OC)c1,99.4
O=c1[nH]c(O)c(C=Nc2ccc(Cl)c(C(F)(F)F)c2)c(=O)[nH]1,-9.0
CC(=O)c1ccc(N2CCN(S(=O)(=O)c3ccc4ccccc4c3)CC2)cc1,0.6
COCCN(C(=O)COC(=O)/C=C/c1cccc(C(F)(F)F)c1)c1c(N)n(CC(C)C)c(=O)[nH]c1=O,-4.6
O=Cc1ccc(C(=O)O)cc1,-0.8
CS(=O)(=O)c1ccc(Cl)c(NC(=O)CNC(=O)c2ccc3c(c2)OCO3)c1,-4.2
Nc1cccc(-c2cn(-c3cc4cc(C#CC5(O)CCCCC5)ccc4oc3=O)nn2)c1,-0.9
CC12CCC(=O)N1C(C(=O)OCC(=O)Nc1ccc(C(F)(F)F)cc1)CS2 (stereo not given),2.0
O=C(Cn1nc(C(=O)O)c2ccccc2c1=O)Nc1cc(S(=O)(=O)N2CCOCC2)ccc1Cl,0.5
Cc1noc(C)c1-c1ccc2ncnc(NC(C)c3ccco3)c2c1 (stereo not given),-0.1
COc1cccc(/C=C/C(=O)OCC(=O)NC2CC2)c1,1.4
COc1cc(/C=C/C(=O)OCC(=O)NCc2ccc(F)cc2)ccc1O,-3.9
COc1cc(OC)cc(-c2c(-c3ccc(F)cc3)c3cc(-c4ccc5[nH]ccc5c4)ccc3n2C)c1,-1.4
C[C@]12c3[nH]c4ccccc4c3CCN1C(=O)C(CC(=O)NCc1ccco1)C[C@@H]2C(=O)N1CCCCC1 (stereo not given in full),-3.3
CC[C@H](C)[C@@H](C(=O)N1CCCC1c1nccs1)N(C)C(=O)[C@H](CC(C)C)N(C)C(=O)[C@H](Cc1ccc(OC)cc1)N(C)C(=O)/C=C(\C)OC (stereo not given in full),4.0
CC1(NC(=O)/C=C/c2nc3ccccc3s2)CCS(=O)(=O)C1 (stereo not given),-6.4
Cc1cccc(CC(=O)NC2CCN(C)CC2)c1,12.4
O=S(=O)(N(Cc1ccccc1)[C@H](CO)Cc1ccccc1)N(Cc1ccccc1)[C@H](CO)Cc1ccccc1,9.9
O=C(CSc1nnc(N2CCOCC2)n1-c1cccc(F)c1)N1CCN(c2ccccn2)CC1,-4.7
COc1cc2cc(CCCOC(=O)c3ccc(C#N)cc3)oc(=O)c2cc1OC,1.5
Cc1ccc(N2CC(C(=O)N3CCC(C(=O)Nc4nnc(C(C)C)s4)CC3)CC2=O)cc1 (stereo not given),10.7
Cc1ccc(C(=O)OC(C)C(=O)NC(C)CCc2ccccc2)o1 (stereo not given),-1.4
COC(=O)C1=C(c2cccc(C#N)c2)C[C@@H]2CC[C@H]1N2C(=O)N1CCCCC1,-0.2
CC(NC(=O)c1ccc(F)cc1)C1CC2CCC1C2 (stereo not given),-2.1
O=C(COc1ccccc1F)OCC(=O)c1ccc([N+](=O)[O-])cc1,7.0
CCOC(=O)Cc1csc(NC(=O)c2ccc(N3CCOCC3)cc2[N+](=O)[O-])n1,2.3
Cc1nn(CC(=O)N(C)C2CCC(C)CC2)c(C)c1S(=O)(=O)N(C)C (stereo not given),-2.2
COC(=O)[C@]1(Cc2ccccc2)N[C@H](CN(C)C(=O)Nc2ccc(OC)cc2)[C@@H]2C(=O)N(Cc3ccccc3)C(=O)[C@@H]21,-6.2
COc1ccccc1OCC(=O)NC1CCCCCCC1,-0.9
Cc1noc(C)c1C(=O)Nc1ccc(-c2nnc3n2CCCCC3)cc1,3.9
Cc1ccnn1-c1ccc(C(=O)N2CCCN(S(=O)(=O)c3ccc(F)cc3)CC2)cc1,0.6

# Ordered by formula weight (rising): four of the compounds above.
molecule,Mtb bLac sens
CC(NC(=O)c1ccc(F)cc1)C1CC2CCC1C2 (stereo not given),-2.1
COc1ccccc1OCC(=O)NC1CCCCCCC1,-0.9
O=C(COc1ccccc1F)OCC(=O)c1ccc([N+](=O)[O-])cc1,7.0
C[C@]12c3[nH]c4ccccc4c3CCN1C(=O)C(CC(=O)NCc1ccco1)C[C@@H]2C(=O)N1CCCCC1 (stereo not given in full),-3.3

# (next part)
molecule,Mtb bLac sens
CCN(c1ccccc1)S(=O)(=O)c1ccc(C(=O)N(C)Cc2cccs2)cc1,-1.3
CCCCN(C(=O)CSc1nc(CCC)cc(=O)[nH]1)c1c(N)n(Cc2ccccc2)c(=O)[nH]c1=O,0.4
O=C(COC(=O)c1ccc([N+](=O)[O-])cc1)NCCC1=CCCCC1,68.0
COc1ccc(CNC(=O)COC(=O)CC(NC(N)=O)c2ccc(Cl)cc2)cc1OC (stereo not given),-10.2
CCCNC(=O)C1(CC2CC(c3ccccc3)=NO2)CCN(C(=O)c2ccccc2)CC1 (stereo not given),-10.6
CN(C(=O)c1ccc(NC(=O)Cc2ccc(NC(=O)C3CCCN(C(=O)CCc4ccccc4)C3)cc2)cc1)C1CC1 (stereo not given),5.8
CCc1nc2ccccc2c(C(=O)OCC(=O)NC2CCCC2)c1C,-5.6
O=C(OCCOc1ccccc1)c1cc(S(=O)(=O)N2CCOCC2)ccc1Cl,0.7
N#Cc1ccc(C(=O)OCCc2cc3ccccc3c(=O)o2)cc1,2.2
NC(=O)c1ccsc1NC(=O)COC(=O)c1cccnc1Cl,-1.2
O=C(CSc1nc2ccccc2c(=O)n1Cc1ccc(F)cc1)NCC1CCCO1 (stereo not given),-0.1
CSc1nc(N)nc2c1ncn2CC(=O)NCc1ccc2[nH]ccc2c1,61.7
COc1ccccc1N(CCC#N)C(=O)COC(=O)CCC(=O)c1ccc(F)cc1,-7.7
CCCn1c(N)c(N(CCOC)C(=O)CSc2c(Cl)cccc2Cl)c(=O)[nH]c1=O,8.3
O=C(Nc1ccc(C(F)(F)F)cc1)c1ccccc1,1.9
Cc1ccc(CNC(=O)CCn2cc(-c3ccc(F)cc3)nc2-c2ccncc2)cc1,7.7
Cc1cc(C)c(S(=O)(=O)NC2CC(C)(C)NC(C)(C)C2)cc1C,-14.4
C[C@H](CO)N1C[C@H](C)[C@@H](CN(C)C(=O)Nc2ccccc2)Oc2ccc(NC(=O)Cn3cnnn3)cc2C1=O,2.4
CCN(CC(=O)Nc1ccccc1OC)C(=O)c1ccc(NC(=O)c2cccs2)cc1,7.7
Cc1ccc(CNc2ccc(N3CCOCC3)cc2)cc1,-7.6

# Some values from the list:
# COc1ccccc1N(CCC#N)C(=O)COC(=O)CCC(=O)c1ccc(F)cc1 @ Mtb bLac sens = -7.7
# NC(=O)c1ccsc1NC(=O)COC(=O)c1cccnc1Cl @ Mtb bLac sens = -1.2

# Continued.
molecule,Mtb bLac sens
Cc1onc(-c2ccccc2)c1C(=O)OCC(=O)Nc1cccc(Cl)c1,-9.5
O=C(O)C1(S(=O)(=O)c2ccc(Cl)cc2)CCC1,1.1
CC(=O)c1cccc(S(=O)(=O)Nc2ccccc2N2CCOCC2)c1,-0.6
C[C@@H]1CN([C@@H](C)CO)C(=O)Cc2cc(NC(=O)Nc3cccc4ccccc34)ccc2O[C@@H]1CN(C)S(C)(=O)=O,5.5
COc1cc(Cl)c(C)cc1NCC(=O)Nc1cccc(S(=O)(=O)N2CCCC2)c1,-8.6
O=C(c1ccccc1)C(O)c1ccccc1 (stereo not given),-9.7
COc1ccc(C(=O)OCC(=O)N2CCN(C(=O)c3ccco3)CC2)cc1OC,-8.9
Cc1ccc(NS(=O)(=O)c2cccc(C(=O)NC3CC3)c2)c(C)c1,-8.7
COc1ccc(S(=O)(=O)N2CCOCC2)cc1NC(=O)CSc1nnc2n1CCCCC2,-1.4
O=C(Cc1ccccc1)Nc1ccc2c(c1)OC1(CCCC1)O2,3.1
O=C(NCC1COCCO1)c1cc(COc2ccc(F)cc2F)on1 (stereo not given),?
Cc1cccc(C(=O)OCC(=O)NCc2ccc3c(c2)OCO3)c1C,-3.7
COc1ccc2c(c1)[C@H]1[C@H](CO2)[C@H](c2ccccc2)[C@]2(C)C(=O)Nc3cc(C)ccc3C(=O)N12,10.4
C1CC2OC2CC1C1CO1 (stereo not given),5.0
COC(=O)C1=C(c2ccc(Cl)c(C(F)(F)F)c2)C[C@@H]2CC[C@H]1N2C(=O)NCCOc1ccccc1,1.8
O=C(O)c1cccc(S(=O)(=O)Nc2ccc(-c3ccccc3)cc2)c1,-7.1
CCOC(=O)Cc1csc(SCC(=O)N2CCN(c3ccccc3)CC2)n1,-5.3
Cc1cccc(NC(=O)COC(=O)c2nn(C)c(=O)c3ccccc23)c1C,4.0
CCN(CC(=O)Nc1ccc2c(c1)OCCO2)C(=O)c1ccccc1Br,-2.2
Cc1ccc(NC(=O)c2nc[nH]c2C(=O)NCCN(CCNC(=O)c2[nH]cnc2C(=O)Nc2ccc(C)cc2)CCNC(=O)c2[nH]cnc2C(=O)Nc2ccc(C)cc2)cc1,5.1
Cc1ccccc1-c1cc(C(=O)NCc2ccc3c(c2)OCO3)n(CC2CC(c3cccnc3)=NO2)n1 (stereo not given),5.7
Cc1cccc(NC(=O)CN2CCC(C(=O)c3ccc4c(c3)OCCO4)CC2)c1,-0.6
O=C(OCC(=O)N1CCOCC1)c1cc(=O)[nH]c2ccccc12,-5.8
C[C@H](CO)N1C[C@H](C)[C@@H](CN(C)Cc2ccccc2)Oc2c(NC(=O)Cc3ccccc3)cccc2C1=O,10.8
O=C(CCS(=O)(=O)c1ccccc1)Nc1ccc(S(=O)(=O)Nc2nccs2)cc1,1.5
Cc1c(N)c(=O)n(-c2ccccc2)n1C,-5.6
CCc1cc2c(=O)n(-c3ccccc3)c(SCC(=O)O)nc2s1,-8.2
COc1ccc(OC)c(NC(=O)CN2C(=O)C(C)N(c3ccc(C)cc3)C2=O)c1 (stereo not given),-10.1
COc1ccc(Nc2nc(N3CCN(S(C)(=O)=O)CC3)nc3ccccc23)c(OC)c1,-7.3
COC(=O)c1cc(NC(=O)CN(C)C2CCS(=O)(=O)C2)cc(C(=O)OC)c1 (stereo not given),-8.0
COc1cc(/C=C/C(=O)OCC(=O)c2ccc[nH]2)cc(OC)c1OC,-1.2
O=C1CC[C@H](O)CCN1CCSc1ccc(Br)cc1,-0.8
C#CCOCCOCCOCCNc1nc(N2CCN(C(=O)CCCCCCCCCCNC(=O)Cn3cc(C[C@@H](C)O)nn3)CC2)nc(N2CCN(C(=O)CCCCCCCCCCNC(=O)[C@H](CCCCN)n3cc(CCCC(=O)O)nn3)CC2)n1,-7.2
CN(C(=O)COC(=O)Cn1cnc2ccccc21)C1CCCCC1,-2.5
COCCN(CC(=O)Nc1cccc(C)c1C)C(=O)C1(c2ccccc2)CC1,0.9
CCOC(=O)c1c(C)[nH]c(C(=O)COC(=O)Cn2cc(C(F)(F)F)ccc2=O)c1C,-3.8
CC(C)Oc1ccc(C(=O)OCC(=O)NC2CCCCCC2)cc1,0.7
CCCCn1c(N)c(N(CCOC)C(=O)c2ccc(OCc3c(C)noc3C)cc2)c(=O)[nH]c1=O,-4.6
CC12CCC(=O)N1C(C(=O)NNC(=O)COc1ccccc1F)CS2 (stereo not given),-9.6
Cc1ccc(C(C)(C)C)cc1S(=O)(=O)Nc1ncnc2sccc12,-2.1
CC(C)N(C(=O)COC(=O)c1ccc(Cl)s1)c1ccccc1,3.7
Cc1csc2nc(COC(=O)c3cccc(N(C)C)c3)cc(=O)n12,-4.1
COC(=O)C1CCN(C(=O)COc2ccc(N(C)S(=O)(=O)c3ccc(C)cc3)cc2)CC1,-7.5
Cc1nc(Cc2nnc(SC(C)C(=O)N3c4ccccc4NC(=O)C3(C)C)o2)cs1 (stereo not given),4.5
Cc1ccc(NC(=O)CN(C)C(=O)CSc2nnc(C)s2)cc1,0.7
Cc1ccc(C)c(NC(=O)C2CCN(C(=O)c3cccs3)CC2)c1,4.2
COc1ccc(C(CNC(=O)c2ccc(OCc3ccccc3)cc2)N2CCOCC2)cc1 (stereo not given),-4.0
N#Cc1ccsc1NC(=O)COC(=O)C1=NNC(=O)CC1,3.0
O=S(=O)(NCc1ccccn1)c1cc(Cl)ccc1Cl,-5.2
CC[C@]12c3[nH]c4ccccc4c3CCN1C(=O)C(CC(=O)NC/C=C(\C)CCC=C(C)C)C[C@@H]2C(=O)N1CCN(C(=O)c2ccco2)CC1 (stereo not given in full),15.6
CCN(C(=O)COC(=O)/C=C/c1ccco1)C1CCCCC1,-0.6
Cn1cnnc1SCC(=O)NNC(=O)c1ccc([N+](=O)[O-])cc1,26.4
CC(C)NC(=O)Nc1ccc2c(c1)C(=O)N([C@H](C)CO)C[C@H](C)[C@@H](CN(C)S(C)(=O)=O)O2,6.8
